VDR inhibitor: vitamin D3 receptor (human) inhibition; P11473; VDR-SRC2-3 peptide fluorescence polarization, 2 h; Potency, µM, without a hit: max response, negative = inhibition, hits mostly inhibitors; 400,000 compounds, 0.93% hits; AID 504847; active means well fitted inhibition curve with a large enough effect; inconclusive means small, poorly fitted or top-dose-only effect, or another doubt; inactive means no such curve, though single readings can be large or run the other way; further: series mostly up to about 120 µM
Target sequence (P11473 whole entry, looked up): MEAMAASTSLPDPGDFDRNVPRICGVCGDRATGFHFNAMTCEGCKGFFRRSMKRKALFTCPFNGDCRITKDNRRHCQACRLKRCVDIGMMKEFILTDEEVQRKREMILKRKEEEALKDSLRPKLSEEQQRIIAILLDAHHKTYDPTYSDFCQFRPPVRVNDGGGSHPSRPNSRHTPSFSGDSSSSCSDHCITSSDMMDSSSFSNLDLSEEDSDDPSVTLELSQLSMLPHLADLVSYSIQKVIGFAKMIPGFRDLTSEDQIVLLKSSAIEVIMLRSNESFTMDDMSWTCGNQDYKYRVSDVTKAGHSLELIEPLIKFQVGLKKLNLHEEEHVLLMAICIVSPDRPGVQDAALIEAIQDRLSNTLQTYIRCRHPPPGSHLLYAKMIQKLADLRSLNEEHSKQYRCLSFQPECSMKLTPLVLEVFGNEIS
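The screen uses fluorescence polarization to detect compounds that interfere with recruitment of the SRC2-3 coactivator peptide to VDR; plates are read after 2 h at room temperature.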
Starred values were filed as active, the others as inactive; ? = inconclusive; & = joins results of further samples; [ ] = dose if it differs, or a comment. On the % scale 0 is the no-effect control and ±100 the full control effect; potency means the concentration at half of the fitted maximal effect.

VDR inhibitor	SMILES
-17.7%	CC(=O)N(C1=C(O)c2ccccc2C(=O)C1=O)C1CCCCC1
-7.9%	Cc1ccc2[nH]c3c(=O)n(N)c(=O)[nH]c3c2c1
8.1%	CCN(CC)Cc1c(O)ccc2c(-c3ccccc3)cc(=O)oc12
-2.9%	CCCCN(CCCC)CCCNC(=O)c1ccc2nc(-c3ccccc3NC(C)=O)c(=O)[nH]c2c1
-16.4%	O=S(=O)(NCCc1cn2ccccc2n1)c1ccc(F)c(C(F)(F)F)c1
-0.9%	CCCn1ncc(CN2CCC(Oc3ccc(C(=O)N4CCCC4)cc3)CC2)c1C
0.9%	CN1CCN(S(=O)(=O)c2cccc(C(=O)Oc3ccccc3Cl)c2)CC1
7.9%	CCCCNc1nc(Oc2ccc(OCC(N)=O)nn2)nc(N2CCOCC2)n1
-8.0%	CCNc1nc(NCC)nc(OCCNS(=O)(=O)c2ccccc2)n1
12.6%	CC(C)CCNC(=O)c1cccc(S(=O)(=O)N2CCc3ccccc32)c1
-2.7%	Cc1nc(-c2ccc(Cl)cc2)sc1C1(C)CC(c2c(Cl)cccc2Cl)=NO1 (stereo not drawn)
-5.2%	CC(C)=CCc1c(O)c(CC=C(C)C)c2occ(-c3ccc(O)cc3)c(=O)c2c1O
3.3%	O=C(Nc1c(C(=O)N2CCOCC2)cnn1-c1ccccc1)c1ccccc1
-21.4%	O=C(CCN1C(=O)[C@@H]2Cc3ccccc3CN2C1=O)N[C@@H](Cc1ccccc1)C(=O)O
2.6%	COc1ccccc1N1C(=O)C2CC=CC(C)C2C1=O (stereo not drawn)
2.1%	CC(=O)Nc1ccc(S(=O)(=O)Nc2cc(Cl)ccc2N2CCOCC2)cc1
4.7%	NS(=O)(=O)c1ccc(N2CCN(S(=O)(=O)Cc3ccccc3)CC2)nc1
-6.5%	CSC(=O)CC(=O)NC(=O)c1ccccc1
-6.0%	CC(=O)Nc1ccc(S(=O)(=O)N2CCC3(CC2)CC(=O)c2ccccc2O3)cc1
9.8%	COc1cc([N+](=O)[O-])cc([N+](=O)[O-])c1NC(=O)N1CCOCC1
-2.7%	CC(=O)NN1C(=O)/C(=C\c2ccc(Br)o2)SC1=S
-8.7%	OC1CCCC1NCc1ccnc2cc(Cl)ccc12 (stereo not drawn)
-2.7%	Cc1nc(-c2cccc(-c3noc(C)n3)c2)no1
4.2%	COC(=O)Cc1csc(NC(=O)c2ccc3ncsc3c2)n1
-12.7%	COc1ccc(S(=O)(=O)N2CCCCCC2)cc1NS(=O)(=O)c1cc(C(=O)O)cc(C)c1C
-11.8%	COC(=O)c1c(NC(=O)CSc2ncn[nH]2)sc(C)c1C
-10.6%	COC(=O)c1cc2ccsc2n1CC(=O)NCC1CCCO1 (stereo not drawn)
-6.1%	On1c(-c2ccccc2)nc2ncccc21
1.6%	Cc1ccc(S(=O)(=O)N2CCN(C(=O)CSc3nccn3C)CC2)cc1
7.6%	Cn1nc(C(=O)OCCN2C(=O)c3ccccc3C2=O)c2ccccc2c1=O

Arranged by the number under VDR inhibitor (low to high): six of the compounds above.
VDR inhibitor	SMILES
-16.4%	O=S(=O)(NCCc1cn2ccccc2n1)c1ccc(F)c(C(F)(F)F)c1
-6.0%	CC(=O)Nc1ccc(S(=O)(=O)N2CCC3(CC2)CC(=O)c2ccccc2O3)cc1
-2.9%	CCCCN(CCCC)CCCNC(=O)c1ccc2nc(-c3ccccc3NC(C)=O)c(=O)[nH]c2c1
-0.9%	CCCn1ncc(CN2CCC(Oc3ccc(C(=O)N4CCCC4)cc3)CC2)c1C
7.6%	Cn1nc(C(=O)OCCN2C(=O)c3ccccc3C2=O)c2ccccc2c1=O
8.1%	CCN(CC)Cc1c(O)ccc2c(-c3ccccc3)cc(=O)oc12

Some values from above.
VDR inhibitor with `COC(=O)Cc1csc(NC(=O)c2ccc3ncsc3c2)n1` = 4.2%
VDR inhibitor with `COC(=O)c1c(NC(=O)CSc2ncn[nH]2)sc(C)c1C` = -11.8%

(listing goes on)
VDR inhibitor	SMILES
3.5%	Nc1ccc[n+](Cc2ccccn2)c1
12.0%	COc1cc(NC(=O)COc2ccccc2Cl)ccc1NC(=O)c1cccs1
-9.0%	CCCCn1c(CNC(=O)c2cccs2)nc2ccccc21
-12.3%	O=C(NN=Cc1ccccc1Cl)c1ccc(-n2cnnn2)cc1
11.6%	O=C(COC(=O)C1(c2ccc(F)cc2)CCCC1)N1CCOCC1
-6.2%	CCCCCn1c(CN2CCN(C(=O)OCC)CC2)nc2c1c(=O)n(C)c(=O)n2C
-8.5%	O=C(CN(c1ccccc1)S(=O)(=O)c1ccccc1)NCCSCc1ccco1
-4.8%	COCCNC(=O)c1ccccc1NC(=O)c1ccc(Cl)c(S(=O)(=O)Nc2ccc(C)cc2C)c1
-20.8%	Cc1ccc(CN2CCN(CC(=O)N=Nc3c(O)[nH]c4ccccc34)CC2)cc1
39.8µM*	CC[C@H]1[C@@H]2C=C[C@@H]3[C@H]4C/C=C\C(=O)NCCC[C@@H]5NC(=O)C(=C5O)C(=O)CC[C@@H]4C[C@@H]3[C@H]2C[C@H]1C
7.3%	Cc1ccc(CN2CCN(/N=C/c3cc(Br)ccc3F)CC2)cc1
-20.6%	Cc1ccc2nc(SCC(=O)N3CCC(C)CC3)nc(=O)n2c1
11.3%	O=C(CNC(=O)c1cccc(OC(F)F)c1)OCc1cc(=O)n2cc(Br)ccc2n1
11.1%	COc1ccc(C(=O)COC(=O)C(C(C)C)N2C(=O)C3C4C=CC(C4)C3C2=O)cc1 (stereo not drawn)
18.8%	COC(=O)[C@H](CCSC)NC(=O)NCc1cccs1
36.8%[activator]	Cc1ccc(S(=O)(=O)n2cc(C=O)c3ccccc32)cc1
-29.8%	O=c1[nH]cc(S(=O)(=O)c2ccccc2)[nH]1
-19.0%	CCc1nnc(NC(=O)C2CCCN2C(=O)Nc2ccccc2OC)s1 (stereo not drawn)
-2.6%	CCCC(=O)C1=C(N2CCCCC2)CC(C)(C)C(C(=O)OC)C1=O (stereo not drawn)
?	O=C(COCc1cc(-c2ccc3c(c2)OCO3)on1)N1CCN(c2cccc(C(F)(F)F)c2)CC1
6.9%	O=C(CN1CCNC(=O)C1)NCCc1ccc(Cl)cc1Cl
?	O=C(Nc1ccc(Cl)cc1)[C@@H]1[C@@H]2C(=O)N(c3cccc(F)c3)C(=O)[C@@H]2[C@H]2C=CC=NN21
21.9%	O=C(Nc1ccc2c(c1)OCCO2)c1cnn(-c2ccccc2)n1
8.9%	CCCCOc1ccc(CNC(=O)c2cccc(NC(=O)N3CCSc4ncccc43)c2)cc1
-3.8%	O=C(NCC(=O)N1CCN(c2ccccc2)CC1)c1cccs1
15.2%	Cc1nc(N)[nH]c(=O)c1CCC(=O)OCC(C)C
-6.6%	COc1ccccc1-[n+]1c(C)cc(/C=C2\Sc3ccccc3N2C)cc1C
7.7%	COc1ccc(C(=O)NC(CC(C)C)C(=O)O)cc1 (stereo not drawn)
?	Nn1c(-c2ccc(O)cc2)nnc1-c1ccc(O)cc1
?	O=C(NCC1CCN(S(=O)(=O)c2ccccc2)CC1)Nc1ccccc1
-13.6%	COc1ccccc1N1CCN(C2CCCN(C(=O)Cn3cccn3)C2)CC1 (stereo not drawn)
-9.3%	COc1cc(NC(=O)c2ccc(OC)c([N+](=O)[O-])c2)ccc1NC(=O)c1ccco1
-19.0%	COCCn1c(=NC(=O)CSCC(=O)Nc2cc(C)on2)sc2cc(C(=O)OC)ccc21
10.4%	COc1ccc(CN2CCCC(C(=O)Nc3cccc(-n4cccn4)c3)C2)cc1 (stereo not drawn)
7.4%	Cc1nc2ccc(NC(=O)c3ccc(Cl)c([N+](=O)[O-])c3)cc2s1
-2.5%	CC1CN(C(=O)c2cc3cc(F)ccc3[nH]2)CC(C)O1 (stereo not drawn)
?	CC(C(=O)Nc1ccccc1C(=O)N1CCOCC1)N(c1ccccc1)S(C)(=O)=O (stereo not drawn)
10.2%	CCCC(=O)C1=C(O)C(C(=O)OC)C(C)(C)CC1=Nc1ccncc1 (stereo not drawn)
5.8%	Cc1cccc(N2CCN(C(=O)N3CCOCC3)CC2)c1C
-3.5%	COc1ccc(S(=O)(=O)NNC(=O)c2csc(-n3nc(C)cc3C(F)(F)F)n2)cc1
-17.3%	O=C(/C=C/c1cn(CC(O)CN2CCCCC2)c2ccccc12)c1ccccc1 (stereo not drawn)
-7.0%	COc1ccccc1C(=O)NNC(=O)c1cccc(Cl)c1
-4.4%	CSc1nc2sc3c(c2c(=O)[nH]1)CCc1ccccc1-3
3.6%	CCCCCCCCCCCCCC(=O)OC(C)C
-1.4%	O=C(NCc1ccccn1)c1cn(CCc2ccccc2)nn1
1.4%	CCCN1Cc2cccc(C(N)=O)c2C1=O
3.4%	S=c1[nH]nc(-c2ccco2)n1/N=C/c1ccc(Cl)cc1Cl
6.5%&15.4%&5.4%	N[C@@H]1CONC1=O
1.9%	Cc1cc(C)c(C)c(OCCN2CCOCC2)c1
1.8%	O=C(NCCc1ccccc1)[C@@H]1CC=C[C@@H]2CCN(Cc3ccc(Cl)c(Cl)c3)C(=O)[C@@H]21
11.3%	CCCOc1ccc(C(=O)NCC(C)(C)N2CCOCC2)cc1
-14.5%	C=CCNC(=S)NCC1COc2ccccc2O1 (stereo not drawn)
7.4%	COC(CNc1ccc([N+](=O)[O-])c(NCC(OC)OC)c1C#N)OC
-7.3%	O=C(CSc1ncccn1)N1CCC(Cc2ccccc2)CC1
-4.1%	Cn1c(N)c(C(=O)COC(=O)c2cc(S(=O)(=O)NCc3ccccc3)ccc2O)c(=O)n(C)c1=O
11.5%	O=C(O)c1ccc(OCC(O)Cn2c3ccccc3c3ccccc32)cc1 (stereo not drawn)
-7.5%	Cn1cc([N+](=O)[O-])c(C(=O)N/N=C/c2ccccc2)n1
-11.3%	NC(=O)C1CCN(c2nc(-c3ccccc3)nc3c2oc2ccccc23)CC1
-2.1%	Cc1ccc(CNC2CCCCC2)s1
3.2%	Cn1c(SC/C=C/c2ccccc2)nnc1-c1cnccn1

In a second layout: entries from further up
canonical_smiles	VDR inhibitor
O=C(/C=C/c1cn(CC(O)CN2CCCCC2)c2ccccc12)c1ccccc1 (stereo not drawn)	-17.3%
COc1ccccc1C(=O)NNC(=O)c1cccc(Cl)c1	-7.0%
CSc1nc2sc3c(c2c(=O)[nH]1)CCc1ccccc1-3	-4.4%
CCCCCCCCCCCCCC(=O)OC(C)C	3.6%
O=C(NCc1ccccn1)c1cn(CCc2ccccc2)nn1	-1.4%

The list continues.
VDR inhibitor	SMILES
-3.3%	CCN1C[C@@H]2[C@@H]3C(=O)N(C)C(=O)[C@@H]3[C@](Cc3ccccc3)(C(=O)OC)N2C1=NC1CCCCC1
-4.4%	Cc1cc(C)nc(SCCC(=O)Nc2ccc(F)cc2)n1
5.3%	CN1C(=O)CSC1=NC12CC3CC(CC(C3)C1)C2
-0.1%	COc1cc(S(=O)(=O)N2CCOCC2)cc(C(=O)OCC(=O)NC2CCCCC2)c1OC
2.4%	N#CCCN(C(=O)COC(=O)c1cc2ccccc2oc1=O)c1ccccc1
-1.6%	CC(=O)Nc1ccc(NC(=O)CSc2nc3ccccc3c(=O)n2CCCN2CCOCC2)cc1
7.3%	CC1=C(C(=O)OCc2ccc3c(c2)OCO3)C(c2ccccc2)NC(=O)N1 (stereo not drawn)
-7.5%	COCCNc1c(-c2ccc(O)cc2)nc2ccc(Cl)cn12
-12.2%	CCOC(=O)[C@@H](C)N(C(=O)OC(C)(C)C)S(=O)(=O)N(Cc1ccccc1)[C@H](C(=O)OC)C(C)C
-10.5%	CCCCOc1ccc(-c2ncc([N+](=O)[O-])cn2)cc1
-3.3%	COc1cccc(C(=O)NN2CCOCC2)c1
-19.4%	CN(C)c1ccc(NC(=O)CC(NCc2cccnc2)C(=O)O)cc1 (stereo not drawn)
8.3%	CC(=O)Nc1ccc2c(CSc3nnc(-c4cccnc4)n3-c3ccc(C)cc3C)cc(=O)oc2c1
-3.5%	CCC(=O)N1c2ccccc2[C@@H](N(C(C)=O)c2ccccc2)C[C@H]1C
-2.1%	O=C(O)c1cc(S(=O)(=O)NC(Cc2c[nH]c3ccccc23)C(=O)O)ccc1Cl (stereo not drawn)
1.2%	CNc1c(NS(=O)(=O)c2ccc(OC)c(Cl)c2)c(=O)oc2ccccc12
17.7%	C=CCn1c(=O)c(C(=O)NCCNCC)c(O)c2ccccc21
-1.9%	CCC(C)[C@H](NC(=O)N1CCCC1)C(=O)O (stereo partly drawn)
4.2%	COc1ccc(CCNC(=S)Nc2cccc(C)c2)cc1
-1.3%	CCOC(=O)N1CCC(N2Cc3cccc(C(=O)Nc4ccc(OC)c(OC)c4)c3C2=O)CC1
-4.2%	CCOc1ccc(NC(=O)Nc2cc3c(cc2N2CCCCC2)n(C)c(=O)n3C)cc1
4.3%	CC(=O)Nc1ccc(Nc2ccc3nonc3c2[N+](=O)[O-])cc1
9.7%	CCc1ccc(CNC(=O)c2ccc(CS(=O)(=O)Cc3cccc(C)c3)o2)cc1
12.0%	COc1ccccc1-n1nnnc1SCC(=O)Nc1ccccn1
-12.5%	COc1cc(OC)cc(C(=O)NCCSCc2ccc(Cl)cc2)c1
0.6%	O=C(Nc1cccc(-n2cnnn2)c1)c1cccc(Cl)c1
-1.9%	COc1cc2c(cc1OC)CN(C(=O)CCCN1C(=O)c3ccccc3C1=O)CC2
-5.9%	COc1ccc2c(c1)c(=O)oc1c(C)c(OCc3ccc(C(=O)O)cc3)ccc12
22.9%	COc1ccc(C2c3ccc(O)cc3Oc3ncn4nc(-c5ccccn5)nc4c32)cc1 (stereo not drawn)
4.2%	CC(C)(C)NS(=O)(=O)c1ccc2nc(NC(=O)c3cccnc3)sc2c1
3.5%	O=C1CCN(c2ccc([N+](=O)[O-])cc2F)CC1
-6.6%	c1ccc(CNc2c3ccccc3nc3ccccc23)cc1
-23.1%&1.5%	O=C(CCc1ccc(O)cc1)c1c(O)cc(O)cc1O
6.0%	Cc1cccc(N2CCN(C(c3cccs3)c3nnnn3C(C)(C)C)CC2)c1C (stereo not drawn)
-0.8%	CCCN(C/C=C/I)C1CCc2cccc(O)c2C1 (stereo not drawn)
-20.4%	O=C(/C=C/c1ccccc1)N/C(=C/c1ccccc1)C(=O)Nc1cccc(C(=O)O)c1

The list is partial (hit frequency here may not be typical).
